Cruzain Triton – blocks cruzain activity in presence of Triton detergent; hit rate 0.43% among 200,000; P25779; purified cruzain, Z-FR-AMC fluorescence, 0.01% Triton; Potency, µM, inactives show max response, negative = inhibition, usual class: inhibitors; active = well fitted curve in the direction sought with a large enough effect; inconclusive = small, poorly fitted or top-dose-only effect, or another doubt; inactive = no such curve, though single readings can be large; an effect the other way counts as inactive or inconclusive;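 note: plate controls were neutral wells for no effect and buffer without enzyme for full effect; nearly all actives have a fitted effect of over 40% in size; top concentration of the series not given in the record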
Target sequence (P25779 123-467 limits assumed): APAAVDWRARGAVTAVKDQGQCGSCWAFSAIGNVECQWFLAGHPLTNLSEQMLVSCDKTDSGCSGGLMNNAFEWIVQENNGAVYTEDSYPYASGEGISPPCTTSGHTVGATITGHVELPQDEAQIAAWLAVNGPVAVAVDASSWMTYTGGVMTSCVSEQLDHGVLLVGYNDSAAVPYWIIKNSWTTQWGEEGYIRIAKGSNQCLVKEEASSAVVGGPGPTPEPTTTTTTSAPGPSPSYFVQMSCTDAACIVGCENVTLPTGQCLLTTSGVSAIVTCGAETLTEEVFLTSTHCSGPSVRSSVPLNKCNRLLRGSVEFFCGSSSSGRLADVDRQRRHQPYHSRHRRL
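Read-out: AMC fluorescence (360 nm excitation, 450 nm emission), four reads over 2 min, first-to-third difference used. Conditions: cruzain 1.5 nM, Z-FR-AMC 2 uM, pH 5.5 acetate, 5 mM DTT, 0.01% Triton X-100.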
2A StopGo – FMDV 2A StopGo reporter, luciferase signal. human cells with a luciferase reporter of 2A StopGo recoding; control for the full effect not named in the record. hit rate 1.2% among 410,000. Potency, µM (titrated, usually from 57.9 µM), for inactives: at the top dose signal change, negative = less light; active = well fitted falling curve with a large enough effect; inconclusive = small, poorly fitted or top-dose-only effect; inactive = no such curve, though single readings can be large or run the other way; tested in HEK293T cells; note: % is set by controls: 0 for no effect and ±100 for the full control effect; nearly all actives have a fitted effect of over 45% in size; luciferase light after 4 h
LASV entry inh – blocks Lassa virus binding to or entry into cells. Lassa virus pseudotype entry inhibition, cell reporter; control for the full effect not named in the record. hit rate 1.2% among 300,000. Potency, µM (top dose mostly 37.9 µM), inactives show at the highest dose activity change, negative = inhibition, hits mostly inhibitors; active means well fitted inhibition curve with a large enough effect; inconclusive means small, poorly fitted or top-dose-only effect, or effect the other way; inactive means flat fitted curve, though single readings scatter; tested in HEK293 cells; note: % is set by controls: 0 for no effect and ±100 for the full control effect; nearly all actives have a fitted effect of over 50% in size; luciferase read-out
Marburg entry inh – blocks Marburg virus binding to or entry into cells. Marburg virus pseudotyped entry inhibition, cell reporter; control for the full effect not named in the record; about a third of the inactives were read at about 46 µM. hit rate 1.8% among 300,000. Potency, µM (series often up to 37.8 µM), inactives show top-dose activity change, negative = inhibition, most hits filed as inhibitors; active = well fitted inhibition curve with a large enough effect; inconclusive = small, poorly fitted or top-dose-only effect, or effect the other way; inactive = flat fitted curve, though single readings scatter; tested in HEK293 cells; about a fifth of its hits are not listed in these tables; note: % is set by controls: 0 for no effect and ±100 for the full control effect; luciferase read-out
SARS PLpro yeast – inhibitors of SARS-CoV papain-like protease in yeast. hit rate 0.19% among 330,000. Potency, µM (highest dose often 32.9 µM), for inactives: at the top dose activity, positive = growth rescue. S. cerevisiae expressing SARS-CoV PLpro, growth rescue; control for the full effect not named in the record; note: 0% is about no effect; nearly all actives have a fitted effect of over 55% in size; growth read by luminescence after 48 h
NS1 function inh – influenza NS1 inhibition; hit rate 0.4% among 270,000; S. cerevisiae slowed by influenza A NS1, growth recovery by OD600; Potency, µM (series often up to 46.1 µM), for inactives: top-dose activity, positive = more growth; AID 2326; note: actives are rising curves; nearly all actives have a fitted effect of over 50% in size
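Growth recovery, yeast-based: influenza A NS1 expressed in S. cerevisiae causes slow growth, and suppressors are detected by OD600. The parent strain without NS1 is used as positive control.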
RE007 growth inh – less growth of the S. pombe RE007 Vpr strain; hit rate 0.21% among 360,000; S. pombe RE007 Vpr strain, BacTiter-Glo ATP luminescence, 24 h; control for the full effect not named in the record; Potency, µM (doses to about 92.2 µM), inactives show at the highest dose activity change, negative = less growth; active = well fitted falling curve with a large enough effect; inconclusive = small, poorly fitted or top-dose-only effect; inactive = no such curve, though single readings can be large or run the other way;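 note: % is set by controls: 0 for no effect and ±100 for the full control effect; nearly all actives have a fitted effect of over 50% in size; the assay follows cell death caused by Vpr and the record does not say whether a fall means rescue or toxicity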
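Fission yeast strain RE007, carrying one chromosomally integrated HIV-1 vpr copy, was seeded at OD 0.01 in PMG+AL medium with 23 nL pinned compound. After 24 h at 30 °C and 99% humidity, viability was read by BacTiter-Glo luminescence.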
Cruzain noTriton – cruzain (T. cruzi) inhibition without detergent | purified cruzain, Z-FR-AMC fluorescence, no detergent | hit rate 2.3% among 200,000 | Potency, µM, inactives show max response, negative = inhibition, most hits filed as inhibitors; active = well fitted curve in the direction sought with a large enough effect; inconclusive = small, poorly fitted or top-dose-only effect, or another doubt; inactive = no such curve, though single readings can be large; an effect the other way counts as inactive or inconclusive;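 note: plate controls were enzyme without inhibitor for no effect and buffer without enzyme for full effect; nearly all actives have a fitted effect of over 40% in size; top concentration of the series not given in the record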
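Purified cruzain at 1.5 nM, pre-incubated 15 min with compound at room temperature in 100 mM sodium acetate pH 5.5, 5 mM DTT, 0.00005% Triton X-100. Reaction started with 2 uM Z-FR-AMC; AMC fluorescence increase over 60 s gives rate.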
Numbers without * were called inactive; ? = inconclusive; · = no result given; & = joins results of further samples; [ ] = another dose, or the depositor's remark. Unless noted, calls come from the whole dose curve; as a rule, active means well fitted rising curve with a large enough effect; inconclusive means small, poorly fitted or top-dose-only effect; inactive means no such curve, though single readings can be large or run the other way. Potency is the fitted concentration of half-maximal effect.

no.	mol	Cruzain Triton	2A StopGo	LASV entry inh	Marburg entry inh	SARS PLpro yeast	NS1 function inh	RE007 growth inh	Cruzain noTriton
1	COC(=O)c1[nH]c2cc(OC)c(OC)cc2c1NC(=O)CN1C[C@H]2C[C@@H](C1)c1cccc(=O)n1C2	·	-20.8%	·	-0.4%	-6.1%	·	7.0%	·
2	COc1ccccc1-c1nc(S(=O)(=O)c2ccccc2)c(N2CCCCC2)o1	·	9.4%	-5.1%	10.5%	0.4%	-0.6%	0.8%	·
3	COc1ccc2nc(SCCN(C)C)[nH]c2c1	·	-6.8%	·	·	0.0%	-1.2%	-4.3%	·
4	Cc1cccc(-n2c(CNC(=O)c3ccccc3)nnc2SCC(=O)Nc2nccs2)c1	-6.7%	3.4%	·	·	1.1%	-6.2%	5.3%	-1.0%
5	Cc1cc(NC(=O)CSc2nc(=O)cc(N)n2-c2ccc(Cl)cc2)no1	·	10.0%	-3.6%[46.1 µM]	-1.2%[46.1 µM]	-4.3%	·	-6.5%	·
6	O=C(CSc1nnc(-c2n[nH]c3ccccc23)n1-c1ccccc1)Nc1ccccc1Cl	-5.5%	?	?	?	9.1%	14.4%	-9.6%	?
7	CCN(CC)c1ccc(/C=C2\CCC(/C=C(\C#N)C(=O)Nc3ccccc3F)=C2N2CCOCC2)cc1	-1.7%	?	·	-1.5%	2.4%	-0.7%	-4.1%	?
8	Nc1ccccc1C(=O)OCC(=O)c1ccc2c(c1)OCCO2	·	8.0%	·	·	5.1%	13.4%	-14.6%	·
9	Cc1ccc(NC(=O)C(C)OC(=O)CCN=C2NS(=O)(=O)c3ccccc32)cc1 (stereo not given)	·	-12.5%	-1.7%	?	-1.0%	·	-9.1%	·
10	CN(C(=O)COC(=O)c1ccc2c(c1)OCO2)c1c(N)n(Cc2ccccc2)c(=O)[nH]c1=O	·	-17.0%	-3.3%	14.9%	1.9%	·	-2.1%	·
11	COCCOCCn1cnc2ccccc21	1.7%	10.0%	-0.3%	18.2%	8.0%	0.1%	-10.3%	-7.9%
12	CCN(CC)CCNC(=O)c1ccc2c(c1)NC(=O)C(CS(=O)(=O)Cc1ccc(F)cc1Cl)N2 (stereo not given)	-26.5%	14.4%	?	·	·	·	·	-27.9%
13	COc1ccc(CN(C)C(=O)c2cccc(Oc3ccccc3)c2)c(OC)c1OC	·	?	?	?	-10.2%	-24.8%	-14.2%	·
14	Cc1cc(Br)ccc1NC(=O)CN(C)C(=O)C1CSC2(C)CCC(=O)N12 (stereo not given)	·	-8.7%	-18.2%	21.2%	·	·	6.8%	·
15	COc1ccc(-c2nc(C(=O)Nc3cccc(C(C)=O)c3)nn2-c2ccccc2Cl)cc1	-17.2%	-26.2%	-8.1%[46.1 µM]	?	·	·	·	?
16	CCOc1ccccc1NC(=S)NNS(=O)(=O)c1c(C)cc(C)cc1C	-8.9%	-19.0%	0.5%	1.4%	7.9%	27.1%	15.1%	-18.6%
17	COc1ccc(NC(=O)CCCSc2nc(-c3ccco3)cc(C(F)(F)F)n2)c(OC)c1	-10.8%	-10.7%	-0.5%[46.1 µM]	-1.5%[46.1 µM]	·	·	·	?
18	COc1ccc(OC)c(N(CC(=O)Nc2cccc(C(F)(F)F)c2)S(C)(=O)=O)c1	·	-15.5%	?	?	-0.4%	4.8%	-3.8%	·
19	O=C(NCCc1ccccc1)c1cnc2n(c1=O)CCS2	·	37.9%[activator]	?	9.5%[46.1 µM]	1.9%	·	2.1%	·
20	CCC1(c2ccccc2)NC(=S)N(c2ccc(C)c(C)c2)N1 (stereo not given)	·	63.1%[activator]	8.1%	26.9%[46.1 µM]	1.5%	2.0%	-12.6%	·
21	CCCCOC(=O)c1ccc(NC(=O)C2CCCO2)cc1 (stereo not given)	-6.6%	72.2%[activator]	13.7%	?	-5.5%	0.0%	10.1%	-18.4%
22	CCc1ccc(CN(C)C(=O)c2cc(=O)c3ccccc3o2)cc1	·	24.0%	?	?	4.7%	-23.2%	5.1%	·
23	O=C(CN1C(=O)C2CC=CCC2C1=O)Nc1nc2ccc(F)cc2s1 (stereo not given)	·	-0.9%	-1.3%	-4.6%	-1.3%	·	-13.6%	·
24	O=C1CCC(=O)N1OCCCOc1ccc(Br)cc1Cl	-5.6%	29.1%	-4.8%	20.4%	-10.4%	-30.3%	-10.7%	5.0%
25	COc1c(/C=N/NC(=O)[C@H]2C[C@@H]2c2ccccc2)c(CCN(C)C(C)=O)cc2c1OCO2	·	-5.6%	?	-16.4%	-4.3%	-13.3%	-3.4%	·
26	Cc1ccc(C2c3[nH]c4ccccc4c3C[C@H]3C(=O)N(c4ccccc4C(=O)NCCN4CCOCC4)C(=O)N23)cc1 (stereo not given in full)	·	-8.9%	·	·	-3.1%	-20.2%	-10.3%	·
27	O=C(O)CNCP(=O)(O)O	3.6%&7.4%	5.6%	·	·	·	2.8%	·	6.8%&6.3%
28	CC(=O)C1=C(O)C(=O)N(c2cc(C(C)(C)C)on2)C1c1ccc(Br)cc1 (stereo not given)	-6.8%	?	1.7%	0.5%	1.0%	15.0%	-4.7%	?
29	CCC(=O)c1ccc(OC(=O)c2cnccn2)cc1	·	12.3%	4.7%[46.1 µM]	1.4%[46.1 µM]	-0.9%	·	-4.2%	·
30	Clc1ccc(C2NCCc3[nH]cnc32)cc1 (stereo not given)	2.5%	-13.3%	?	23.6%	-0.4%	8.2%	-2.1%	-6.9%
31	CCN(C(=O)C(NS(=O)(=O)c1ccc(Br)s1)c1ccccc1)c1ccc(C)c(C)c1 (stereo not given)	-7.9%	-24.0%	?	?	·	·	·	22.1%
32	CC(=O)OCCNC(=O)c1cccnc1	1.4%&-8.0%	17.2%&6.0%	?	-0.3%&-0.3%&-0.3%	-2.4%	-1.3%	-3.9%	-11.9%&-8.1%
33	CCOc1ccc(NC(=S)Nc2ccc(OCc3ccccc3)cc2)cc1	1.7%	4.7%	5.7%	-3.2%	-7.1%	?	-10.8%	?
34	CC1(C)N=C(N)NC(Nc2cccc(Br)c2)=N1	-1.0%	-28.1%	5.6%	-1.0%[46.1 µM]	7.3%	-5.0%	-18.0%	5.7%
35	N#Cc1ccc(NC(=O)c2cc(=O)c3ccccc3o2)cc1	·	10.1%	14.8%	2.5%	-0.1%	·	20.6%	·
36	O=C(NNC(=O)c1ccc(F)cc1)C(=O)N1CCCCC1	2.7%	-1.9%	9.8%	7.7%	6.7%	2.3%	-4.9%	15.5%
37	c1ccc(P(c2ccccc2)c2ccccn2)cc1	·	-10.4%	?	-3.9%	1.7%	0.3%	8.9%	·
38	CC(=O)Nc1ccc(NC(=O)N2CCCCC2)cc1	3.7%	-7.2%	6.4%	-6.2%	2.3%	?	5.9%	1.6%
39	COc1cc(N2C(=O)CSC2=S)cc(OC)c1OC	·	?	·	-0.1%	-12.9%	-43.3%	-22.2%	·
40	Cc1c(C(=O)Oc2ccc(Br)cc2)sc2ncn(Cc3ccccc3F)c(=O)c12	-0.5%	4.0%	?	·	·	·	·	-3.6%
41	Cc1occc1C(=O)N/N=C/c1cnn(C)c1C	-0.8%	47.6%	1.5%	12.7%	-14.3%	19.9%	1.0%	-6.2%
42	CCOC(=O)N1CCN(c2c(N3CCN(C(=O)OCC)CC3)c(=O)c2=O)CC1	·	0.0%	·	·	0.2%	1.9%	2.2%	·
43	CCCCc1ccc(NC(=S)NCCO)cc1	·	28.1%	8.0%	?	1.2%	-1.2%	4.5%	·
44	CCCc1cc(=O)[nH]c(SCC(=O)c2cc(C)n(-c3cc(C)on3)c2C)n1	·	-8.7%	10.7%[46.1 µM]	4.3%[46.1 µM]	0.4%	·	8.6%	·
45	O=C(Nc1ccncc1)c1cn(-c2ccccc2)nc1-c1cccs1	-4.2%	-7.7%	-8.0%	?	-31.4%	-0.7%	-0.3%	-7.5%
46	Cc1nn(Cc2noc(C(=O)NCc3ccc4c(c3)OCO4)n2)c(C)c1Br	·	-4.3%	?	?	-2.5%	-12.8%	12.4%	·
47	COc1cc(NC(=O)c2cc(OC)c(OC)c(OC)c2)cc(-n2cnnn2)c1	·	0.4%	-4.7%	2.4%[46.1 µM]	-3.3%	0.8%	18.7%	·
48	COC(CN(C)C(C(=O)NC1CCCCC1)c1ccccc1)OC (stereo not given)	·	11.5%	6.7%	-0.5%[46.1 µM]	1.4%	·	31.3%	·
49	O=C1c2oc3ccc(F)cc3c(=O)c2C(c2ccncc2)N1CCN1CCOCC1 (stereo not given)	-3.7%	·	·	0.0%	1.3%	?	·	-15.1%
50	O=C(CCc1c[nH]c2ccccc12)N1CCCC1	·	8.7%	-1.7%[46.1 µM]	-9.7%[46.1 µM]	-6.6%	13.0%	-9.8%	·

Continuation.
no.	mol	Cruzain Triton	2A StopGo	LASV entry inh	Marburg entry inh	SARS PLpro yeast	NS1 function inh	RE007 growth inh	Cruzain noTriton
51	Cc1ccc(CCNC(=O)Cn2ncc3c([nH]c4ccccc43)c2=O)cc1	·	-13.8%&-10.7%	12.3%[46.1 µM]	·	0.3%	-1.5%	3.6%	·
52	COc1ccccc1C(=O)NCC(=O)NC(C)c1ccc(-n2ccnc2)cc1 (stereo not given)	·	-21.4%	21.2%	15.1%	5.3%	-1.4%	-5.3%	·
53	CCCn1c(-c2ccc(C(=O)OC)cc2)nc2c1c(=O)[nH]c(=O)n2Cc1ccccc1	·	17.7%	·	12.1%[46.1 µM]	0.0%	2.1%	11.7%	·
54	CCOC(=O)c1cc(S(=O)(=O)N2CCC(C)CC2)cn1C	·	-1.1%	·	·	1.2%	-0.6%	-5.7%	·
